Bfl-1 A1 inh: caspase 3/7 activation in MEF A1-2A-BIM cells, primary screen, A1 inhibitor project, cell-based, luminescence, HTS | Caspase-Glo 3/7 luminescence, 3 h; percent of clofoctol response, vehicle zero | caspase activation, % (concentration not given with the values) | 0.066% of 330,000 active | AID 2462, 2010;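 active = over half of replicate activation scores above 10%, or exactly half above 10 with the replicate mean above 10; inconclusive = replicate mean below 10 yet half the replicates above 10; inactive = over half of replicates below 10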;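 also: wells of about 30 µL received 50 nL stock; many hits fall short of the cut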
AF4-AF9 inh: inhibitors of AF4 peptide binding to AF9, primary screen, biochemical, AlphaScreen, biotin-AF4 peptide, FLAG-AF9, single point; Protein AF-9 (Homo sapiens), P42568; AID 651704, 2012; inhibition, % at 10 µM; 0.47% of 350,000 active;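 active = every replicate reaching a set inhibition limit, whatever the replicate mean, cut at about 25% in these data; inconclusive = mean inhibition reaches that limit but some replicates miss it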;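 also: 0% = plate neutral control median and 100% = total signal loss; the record names both 10 and 1 µM as test concentration; the first replicate is given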
Target sequence (P42568 whole entry, looked up): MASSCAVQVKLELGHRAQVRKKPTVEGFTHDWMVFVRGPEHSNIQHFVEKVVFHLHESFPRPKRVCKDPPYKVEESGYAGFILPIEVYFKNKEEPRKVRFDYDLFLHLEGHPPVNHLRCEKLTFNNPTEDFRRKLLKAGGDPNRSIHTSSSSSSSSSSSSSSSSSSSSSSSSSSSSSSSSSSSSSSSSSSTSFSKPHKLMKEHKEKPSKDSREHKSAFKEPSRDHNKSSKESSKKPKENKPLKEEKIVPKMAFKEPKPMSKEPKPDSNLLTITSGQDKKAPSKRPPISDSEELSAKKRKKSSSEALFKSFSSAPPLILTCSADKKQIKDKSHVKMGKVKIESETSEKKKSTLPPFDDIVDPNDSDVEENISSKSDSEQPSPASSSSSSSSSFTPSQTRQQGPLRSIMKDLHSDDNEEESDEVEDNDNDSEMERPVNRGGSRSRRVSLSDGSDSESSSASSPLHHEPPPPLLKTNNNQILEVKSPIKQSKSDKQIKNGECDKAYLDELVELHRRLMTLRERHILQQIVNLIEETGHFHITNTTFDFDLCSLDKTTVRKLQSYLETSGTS
T cruzi inh: inhibitors of intracellular T. cruzi growth, primary screen, luminescence, NIH3T3 host cells | AID 1885, 2009 | T. cruzi beta-gal in NIH3T3, 90 h | inhibition, % (no concentration beside the values) | 1.4% of 300,000 active;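 active = mean inhibition across valid replicates above about 55%, limit read from the data; inconclusive = mean below that limit but half or more replicates reach it; inactive = mean below it, under half of replicates reach it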;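 also: signal also drops with host cell toxicity which is not excluded here; 0% = plate median of DMSO wells and 100% = zero luminescence signal; higher percent means less beta-gal luminescence so fewer parasites; stock transfer was 50 nL into about 50 µL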
Beta cell apopt: inhibitors of cytokine-induced beta cell apoptosis, primary screen, luminescence. INS-1E cytokine-induced death, ATP luminescence, 48 h; percent of positive-control rescue, neutral wells zero. protection from apoptosis, % (test concentration not listed). 0.8% of 300,000 active;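 active = all replicates at 75% or more, or half of them and the mean; inconclusive = half reach 75% but not the mean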;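 also: 0% = cytokine-treated negative control wells and 100% = positive control rescue; higher means more ATP so stronger rescue from cytokine killing; wells of about 40 µL received 100 nL stock; the first replicate is given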
Ecoli rRNA inh: reduced GFP signal of wild-type E. coli, primary screen, bacterial rRNA inhibitor project, GFP/RFP fluorescence, OD600, single point | E. coli WT GFP vs humanized-ribosome RFP mutants, 24 h; active compounds read low; DMSO median 0, no signal -100 | GFP signal change (wild-type ribosome), % (concentration not given with the values) | 1.6% of 350,000 active | AID 720706, 2013;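 active = significant combined selectivity score with lowered wild-type GFP, culture density cut under 30%, mutant RFP and density less affected; inactive = any of these conditions unmet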; also: one replicate is shown; some compounds called inactive have numbers as strong as hits
FGF22 binding: binders of human FGF22 protein, primary screen, FGF22 synaptogenesis inhibitor project, biophysical, thermal shift, single point; Fibroblast growth factor 22 (Homo sapiens), Q9HCT0; recombinant FGF22 thermal shift, SYPRO orange fluorescence; percent of sucrose octasulfate shift, DMSO zero; calls only at 9.99 µM; 1.5% of 340,000 active; AID 651658, 2012;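 active = melting point raised past a set limit in the mean and every replicate; inconclusive = no clear call; three in four hits are not shown here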
Target sequence (Q9HCT0 whole entry, looked up): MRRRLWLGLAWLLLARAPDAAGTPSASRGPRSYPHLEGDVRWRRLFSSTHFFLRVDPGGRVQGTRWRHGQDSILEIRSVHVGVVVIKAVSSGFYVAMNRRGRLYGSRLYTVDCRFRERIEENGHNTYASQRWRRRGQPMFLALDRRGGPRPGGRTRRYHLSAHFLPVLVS
UCH37 DUB inh: inhibitors of human UCH37 deubiquitinase, primary screen, biochemical, Ub-AMC cleavage, fluorescence; purified proteasome/UCH37; 0.33% of 330,000 active; inhibition, % (concentration not given with the values);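 active = mean of two replicates above 20%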;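 also: 0% = compound-free wells with enzyme and 100% = wells lacking proteasome; stock transfer was 100 nL into about 20 µL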
Target sequence (Q9Y5K5 whole entry, looked up): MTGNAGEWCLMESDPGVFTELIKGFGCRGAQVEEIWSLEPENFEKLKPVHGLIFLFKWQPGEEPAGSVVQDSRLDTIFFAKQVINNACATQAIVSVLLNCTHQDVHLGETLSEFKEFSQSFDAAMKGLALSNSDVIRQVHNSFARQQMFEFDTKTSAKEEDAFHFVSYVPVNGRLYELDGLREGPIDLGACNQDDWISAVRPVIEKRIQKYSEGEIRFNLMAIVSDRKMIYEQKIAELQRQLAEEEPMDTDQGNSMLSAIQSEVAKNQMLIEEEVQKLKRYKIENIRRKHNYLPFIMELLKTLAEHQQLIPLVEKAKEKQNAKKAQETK
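Material: Human UCH37 enzyme supplied as purified proteasome complex | Schedule: 30 min compound-proteasome preincubation then 25 min substrate reaction, room temperature | Detection: AMC fluorescence from Ub-AMC cleavage, excitation 355 nm, emission 460 nm | Benchmarks: Wells without proteasome as full block, compound-free enzyme plus substrate as uninhibited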
Ecoli growth: E. coli growth inhibition, primary screen, OD600. Escherichia coli growth, 23 h; active compounds read low. OD600 absorbance (test concentration not listed). 0.21% of 330,000 active;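 active = OD600 absorbance below the run mean of sample wells minus 3.6 SD, in any replicate, cut at about 0.56 in these data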;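 also: stock transfer was 300 nL into about 60 µL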
Ecoli rRNA inh OD600: second read-out of Ecoli rRNA inh, no call of its own (marks repeat the call); OD600 change, %; measured here: OD600 growth;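 optical density of the mix in the first replicate; 0 = DMSO median and -100 = no signal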
Ecoli rRNA inh RFP: also measured in Ecoli rRNA inh; calls as there; RFP signal change, %; measured here: RFP humanized mutant strains;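 first replicate; 0 = DMSO median and -100 = no signal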
Active calls of the source: *; i = inactive; u = inconclusive; x = not tested or not shown.

Below each compound – Bfl-1 A1 inh	AF4-AF9 inh	Ecoli rRNA inh RFP	Ecoli rRNA inh OD600	UCH37 DUB inh	T cruzi inh	Ecoli growth	Beta cell apopt	Ecoli rRNA inh	FGF22 binding
- Cc1cc(C)nc(NC(=S)NC(=O)c2ccccc2)n1
 : 0.8	-0.9	0.0	9	3.0	-10	0.62	-9	5	i
- CC1CN(C(=O)c2ccccc2OCc2ccc(Cl)cc2Cl)CC(C)O1 (centres undefined)
 : 3.0	-3.7	-6.5	-39	2.4	x	0.68	-6	-27	i
- Cc1cc(C)c2c(CC(=O)O)c(C)[nH]c2c1
 : 0.1	0.9	3.0	5	-20	-8	0.73	3	12	i
- CCC1=NN2C(=N)/C(=C\c3ccc(OCCOc4ccccc4)c(OC)c3)C(=O)N=C2S1
 : -0.5	-1.5	1.7	14	x	-18	x	x	2	i
- COc1ccccc1OCC(=O)Nc1cccc(-c2nnc(-c3ccco3)o2)c1
 : 0.2	-1.8	9.4	11	0.9	-23	0.66	-1	-1	i
- CCC(C(=O)NCCC(C)C)n1ccc2cc(S(=O)(=O)N3CCCCC3)ccc21 (centres undefined)
 : -2.3	x	x	x	0.5	-2	0.73	x	x	x
- O=C(NC1CCC(O)CC1)c1ccc(-c2ccc([N+](=O)[O-])cc2)o1 (centres undefined)
 : 0.1	-3.2	-4.3	-5	9.7	5	0.69	2	-14	i
- CCOC(=O)c1sc(=S)n(-c2ccc(F)c(F)c2)c1N
 : -0.1	x	x	x	4.3	5	0.68	-4	x	x
- O=C(Nc1cccc(F)c1)c1cccc(S(=O)(=O)N2CCOCC2)c1
 : -0.5	x	x	x	1.5	-12	0.71	1	x	x
- COc1ccc(C)cc1NC(=O)C(CCS(C)(=O)=O)NC(C)=O (centres undefined)
 : -0.1	-2.6	-1.8	1	4.7	-11	0.78	7	5	i
- Cc1ccsc1/C=N\NC(=O)CCc1c(C)n[nH]c1C
 : -0.6	0.8	0.9	-10	x	-6	x	-11	-1	i
- N#Cc1ccccc1S(=O)(=O)N1CCN(CC(O)c2ccccc2)CC1 (centres undefined)
 : -0.1	-2.6	-0.3	2	2.4	3	0.7	-1	5	i
- CCn1c(C(C)NC(=O)c2cccs2)nc2ccccc21 (centres undefined)
 : -0.2	u	0.3	3	8.6	0	0.73	2	1	i
- Cc1cc2c(c(=O)o1)C1(C(=O)N(CC(=O)O)c3ccccc31)C(C#N)=C(N)O2 (centres undefined)
 : 0.3	x	x	x	-0.6	-9	0.73	-6	x	x
- CCOc1ccc(C(CC(=O)O)NC(=O)c2cccs2)cc1OC (centres undefined)
 : 0.1	-2.4	-3.8	0	1.5	-12	0.67	-3	6	i
- Cc1ccc(N(CC(=O)O)S(=O)(=O)c2cccc3nonc23)cc1
 : -0.8	x	x	x	3.1	-10	0.69	4	x	x
- COc1ccc(C(=O)OCC(=O)NCC2CCCCC2)cc1S(=O)(=O)N1CCCc2ccccc21
 : 0.3	x	x	x	-1.4	9	0.69	-6	x	x
- CCN1CCN(C(=O)N(CC(=O)Nc2ccc(C(N)=O)cc2)S(=O)(=O)c2ccc(C)cc2)CC1
 : x	-0.9	0.7	6	0.1	-4	0.67	x	8	i
- CN1C(=O)N(c2nnc(C(C)(C)C)s2)C(=O)C1c1ccccc1 (centres undefined)
 : 0.5	-1.5	x	x	1.7	4	0.65	-1	x	i
- CSc1nsc(SCC(=O)N2CCCCC2)n1
 : -0.8	-2.4	-4.3	2	6.4	-2	0.69	-3	7	i
- O=C(CSc1ccccc1)NCc1ccco1
 : 1.5	x	x	x	-2.6	-9	0.75	-6	x	x
- Cc1cccc(N2CCN(C(=O)c3noc4c3COc3ccc(C)cc3-4)CC2C)c1 (centres undefined)
 : -0.3	-4.9	0.1	2	4.8	-1	0.72	1	-7	i
- COc1ccc(OC)c(NC(=O)Cc2cccs2)c1
 : 0.6	1.5	-1.9	-5	3.0	-9	0.68	-5	-1	i
- N#Cc1c(-n2cccc2)cccc1-n1cccc1
 : -0.4	x	x	x	0.8	9	0.69	-2	x	x
- CC(C)(C)C(=O)NC1CC2CCCC(C1)N2C(=O)Nc1ccccc1 (centres undefined)
 : 0.2	-1.6	0.5	17	0.7	5	0.64	1	5	i
- Cc1sc2nc(CN3CCOCC3)nc(NCCc3ccccc3)c2c1C
 : -1.1	x	x	x	-2.6	23	0.66	9	x	x
- Cc1nc(SCC(=O)NCC2CCCO2)nc(C)c1C (centres undefined)
 : 0.1	-0.6	-1.9	7	-0.2	x	0.7	-4	4	i
- Cc1ccc(CN2CCN(CCCn3cccn3)CC2CCO)cc1 (centres undefined)
 : 0.6	-0.1	-1.2	4	4.2	26	0.7	-4	18	i
- COc1ccc(C(=O)NC(Cn2ccnc2)C(C)(C)C)cc1OC1CCN(C(C)C)CC1 (centres undefined)
 : -0.7	2.5	2.5	14	1.3	4	0.68	-2	14	i
- Cc1ccc(NS(=O)(=O)c2ccc(OCC(=O)NCc3ccccn3)cc2)cc1
 : -0.2	0.3	6.6	-5	-0.6	2	0.74	0	6	i
- Cc1nn(-c2ccc(C(=O)Nc3nnc(C4CC4)s3)cc2)c(C)c1Cl
 : 0.4	x	x	x	1.9	2	0.75	-2	x	x
- O=C1c2ccccc2C(=O)N1OS(=O)(=O)c1ccc(F)cc1
 : 2.7	0.0	-2.8	3	-6.4	-2	0.69	-2	5	i
- O=C(NC(=S)Nc1ccccc1N1CCOCC1)c1cccs1
 : -0.7	11	-2.2*	-18*	6.2	-12	0.67	x	-29*	i
- CCOC(=O)C(CC)/C(C)=N\NC(=O)CCC(=O)Nc1ccc(Cl)cc1Cl (centres undefined)
 : 1.0	-2.0	1.9	11	x	-8	x	-1	8	i
- CCCCC(NC(=O)Cc1c(C)c2cc3c(C)c(C)oc3c(C)c2oc1=O)C(=O)O (centres undefined)
 : -0.4	-2.9	3.3	-7	-75	-9	0.68	-4	-12	i
- COc1ccc(N(CC(=O)Nc2ccc(F)cc2F)S(=O)(=O)c2c(C)nn(C)c2C)cc1
 : -0.1	0.7	-0.1	-11	0.3	-7	0.69	-2	-2	i
- O=C(NNC(=O)c1ccccc1Cl)c1ccncc1
 : -0.5	4.5	2.5	11	0.8	7	0.69	-6	8	i
- Cc1ccc(C)c(S(=O)(=O)ON2C(=O)c3ccccc3C2=O)c1
 : 0.7	-0.3	2.1	18	4.7	18	0.69	38	23	i
- CC(=O)c1nnn(-c2ccc([N+](=O)[O-])cc2C)c1C
 : -0.6	-3.6	1.6	13	0.4	-1	0.67	1	15	x
- CC1=CC(C)C2COC(c3ccc[n+](C)c3)C1C2C (centres undefined)
 : 0.4	x	x	x	3.8	-16	0.66	-9	x	x
- Cc1nc2ccc(NC(=O)Cc3cccs3)cc2s1
 : -5.6	x	x	x	3.8	-3	0.7	-3	x	x
- CNC(=O)COc1ccc(S(=O)(=O)Nc2ccccc2)cc1
 : -1.0	-3.6	-0.1	3	-1.3	-3	0.7	x	-2	i
- COc1cc(OC)c(N(C)C(=O)c2cc3c(s2)-c2ccccc2S(=O)(=O)C3)cc1Cl
 : 1.0	2.4	0.6	-13	3.2	15	0.72	13	-8	i
- COc1ccc(-n2c(Cc3cccn3C)nnc2SCC(=O)N2CCCC2)cc1
 : 0.7	0.4	1.5	8	3.1	-4	0.72	-5	6	i
- CCCn1c(SCC(=O)NC23CC4CC(CC(C4)C2)C3)n[nH]c1=O
 : 0.9	x	x	x	-0.5	-8	0.74	6	x	x
- S=C(NCCc1ccccc1)NCCN1CCOCC1
 : 0.5	3.4	0.3	11	2.2	-3	0.7	3	24	i
- CCOC(=O)C1=C(C(F)(F)F)Nc2ncnn2C1c1cc(OC)c(OC)cc1OC (centres undefined)
 : -0.9	x	x	x	3.3	2	0.69	-8	x	x
- O=C(Cc1ccccc1[N+](=O)[O-])NCCC1=CCCCC1
 : 0.3	-2.2	-0.3	3	4.0	-6	0.7	-4	6	i
- CCSc1ccccc1C(=O)NC1CCCCC1
 : -0.9	0.2	1.5	4	0.6	3	0.66	-7	6	i
- CCc1ccc2[nH]c(=O)c(CN(Cc3ccc4c(c3)OCO4)C(=O)c3ccco3)cc2c1
 : 0.8	x	x	x	0.6	27	0.79	1	x	x
- CCOC(=O)c1ccc(S(=O)(=O)N2CCN(S(=O)(=O)CC)CC2)cc1
 : -0.9	x	x	x	-2.2	-4	0.73	1	x	x
- NC(=O)CC(NC(=O)Cc1ccc(Cl)cc1)c1ccc(NC2CCN(Cc3ccccc3)CC2)c([N+](=O)[O-])c1 (centres undefined)
 : -0.1	2.6	3.9	3	3.4	8	0.66	1	-9	i
- Clc1cccc(OCCCCCN2CCOCC2)c1
 : -0.9	-3.0	-2.2	9	2.9	8	0.68	2	1	i
- CC(O)CNCCCOc1ccccc1OCc1ccccc1 (centres undefined)
 : 0.8	0.7	-3.1	4	4.4	12	0.68	-9	7	i
- CSc1ccccc1C(=O)OCC(=O)Nc1ccc(N2CCOCC2)cc1
 : -0.6	-3.0	-1.0	-19	2.9	x	0.7	2	-3	i
- Cc1c(-c2ncn[nH]2)sc(C#N)c1-c1ccccc1
 : -0.6	1.5	-16	-65	5.0	7	0.66	3	-46	i
- CCC1Nc2ncnc(N3CCOCC3)c2N(Cc2ccc(C)cc2)C1=O (centres undefined)
 : 1.0	9.5	-0.6	14	4.5	-21	x	-9	3	i
- CCC1Oc2ccc(C)cc2N(CC(=O)NCc2cc(OC)ccc2OC)C1=O (centres undefined)
 : -0.4	x	x	x	3.9	1	0.73	-3	x	x
- CCOC(=O)C1=C(CSc2nccn2C)NC(=O)NC1c1ccc2c(c1)OCO2 (centres undefined)
 : -0.6	x	x	x	4.3	-9	0.75	0	x	x
- COc1ccccc1C(=O)COC(=O)CN1C(=O)NC2(CCCC2)C1=O
 : -0.2	-0.5	-0.2	6	0.3	-8	0.71	-1	9	i
- Cc1cccc(C)c1Nc1nnc(SCc2nc3ccccc3s2)s1
 : 1.5	x	x	x	-1.6	2	0.7	-3	x	x
- CCOc1ccc(C(=O)Nc2nnc(SCC(=O)NCC3CCCO3)s2)cc1 (centres undefined)
 : -7.7	1.9	0.9	18	2.4	-1	0.7	4	19	i
- COc1cc(C(=O)N2CCC(C(N)=O)CC2)ccc1OCc1c(C)noc1C
 : -0.2	-1.2	-3.1	-1	0.9	x	0.71	3	0	i

These rows are one share of the data; count on the stated rates, not on these rows.
